TAR Tat displ = HIV-1 TAR-Tat binding disruption | AID 1259389 | 100,000 tested, 0.6% active | HIV-1 TAR RNA, Tat peptide displacement FRET; stronger effect = higher value | z-score (no concentration beside the values);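 note: score is relative to mean and SD of negative controls; some compounds called inactive have numbers as strong as hits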
CDC25B CDK2 inh = human CDC25B-CDK2/CyclinA binding inhibition; P30305+P24941; HTRF CDC25B-CDK2/CyclinA binding, anti-His/anti-Flag; stronger effect = higher value; z-score (no concentration beside the values); 94,000 tested, 0.72% active;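 note: score is relative to mean and SD of negative controls; strong numbers were not always called active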
The depositor's hits bear a star; nt = no result given.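 Rule for the calls: active = z-score from 3 up in half or more of its runs; inactive = the rest.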

SMILES	TAR Tat displ	CDC25B CDK2 inh
CCCCN(Cc1ccco1)C(=O)c1sc2nc3n(c(=O)c2c1C)CCCC3	1.2	nt
Cc1cc([N+](=O)[O-])nn1CC(=O)O	-0.05	0.67
O=C(C1CC(c2ccc(F)cc2)=NO1)N1CCCc2ccccc21 (configuration not stated)	1.4	-0.4
CC(C)CC(NC(=O)C1CCC(C)CC1)C(=O)NCc1ccco1 (configuration not stated)	-0.66	3.1
COc1ccccc1Cn1c(=O)sc2ccccc21	0.14	-0.94
CCNc1nc(NCC)nc(OCCNS(=O)(=O)c2cc(C)ccc2C)n1	-1.1	-1.9
Cc1oc2ncn3nc(CCn4c(C)nc5ccccc54)nc3c2c1C	-0.16	nt
Cc1cc2c(s1)CCc1cc(C(=O)N3CCN(C4CCCCC4)CC3)sc1-2	0.24	nt
COc1ccc2c(c1)c1ncn(CCCN3CCN(C)CC3)c(=O)c1n2C	2.9	-13
Cc1ssc(=S)c1-c1ccccc1	nt	5.7*
Cn1c(OCc2ccc3c(c2)OCO3)nc2c1c(=O)n(Cc1ccc(F)cc1)c(=O)n2C	-0.82	-0.89
CCOc1ccccc1Nc1nnc(C(C)(C)C)c(=O)[nH]1	-0.02	-0.88
CCCc1cc(=O)n2[nH]c(C)nc2n1	0.08	-1.6
CCCc1cc(=O)n2nc(N3CCC(C(=O)NCCN4CCCC4)CC3)sc2n1	3.1	-0.43
O=C(CC1(O)C(=O)Nc2ccc(Cl)cc21)c1cccc(Br)c1 (configuration not stated)	nt	-0.08

4 of the compounds above, with values under each structure.
Each structure is followed by: TAR Tat displ	CDC25B CDK2 inh
- Cn1c(OCc2ccc3c(c2)OCO3)nc2c1c(=O)n(Cc1ccc(F)cc1)c(=O)n2C
 : -0.82	-0.89
- CCOc1ccccc1Nc1nnc(C(C)(C)C)c(=O)[nH]1
 : -0.02	-0.88
- CCCc1cc(=O)n2[nH]c(C)nc2n1
 : 0.08	-1.6
- CCCc1cc(=O)n2nc(N3CCC(C(=O)NCCN4CCCC4)CC3)sc2n1
 : 3.1	-0.43

In a second layout: results already given
compound | TAR Tat displ | CDC25B CDK2 inh
CCCc1cc(=O)n2[nH]c(C)nc2n1 | 0.08 | -1.6
CCCc1cc(=O)n2nc(N3CCC(C(=O)NCCN4CCCC4)CC3)sc2n1 | 3.1 | -0.43

Further entries follow.
SMILES	TAR Tat displ	CDC25B CDK2 inh
O=C(CCS(=O)(=O)c1cccc2nsnc12)Nc1ccccc1F	0.21	-1.1
Cc1cc(C)c2oc(C(=O)Nc3sc4c(c3C(=O)NCc3cccnc3)CCCC4)cc(=O)c2c1	0.92	-2.4
CC(=O)Nc1ccc(C(=O)NN)cc1NC(C)=O	nt	-1.1
CC1CCC(NC(=O)CCCn2sc3ccccc3c2=O)CC1 (configuration not stated)	2.4	-1.6
CCCn1c(CN(C)C(C)=O)nc2ccccc21	-0.52	-1.3
CCOC(=O)N1CCN(C(=O)Nc2ccc3nc(-c4ccccc4)c(-c4ccccc4)nc3c2)CC1	nt	-1.5
O=C(Nc1ccc(Cl)cn1)c1cc(-c2ccc3c(c2)OCCO3)on1	1.4	-1.5
COc1ccc(OC)c(-c2noc(Nc3cc(C)ccc3OC)n2)c1	1.4	nt
CCNC(=O)c1cnc2sc(N3CCCC(C)C3)nn2c1=O (configuration not stated)	0.68	nt
CC1CCc2nn(CC(=O)Nc3c(F)c(F)cc(F)c3F)cc2C1 (configuration not stated)	nt	-1.9
CCc1cccc(Nc2nc3ccccc3n3cnnc23)c1	0	-2.9
CCOC(=O)C1CCCN(c2c(NCCCN3CCCC(C)C3)c(=O)c2=O)C1 (configuration not stated)	nt	-2.1
Cc1ccc(NC(=O)c2ccc(S(=O)(=O)N3CCCC3)cc2)c(C(=O)c2ccccc2)c1	nt	-1.8
N#C/C(=C\NCc1cc(C(F)(F)F)cc(C(F)(F)F)c1)S(=O)(=O)c1ccc(Cl)cc1	nt	-1.4
N#C/C(=N\O)c1ccccc1Cl	nt	-0.05
CCOC(=O)N1CCC(N2C(=O)c3ccccc3C2O)CC1 (configuration not stated)	-0.83	-0.85
CN(C)CCCN(C(=O)c1cccs1)c1nc2ccc(Cl)cc2s1	-0.71	nt
COc1ccc(OCC(=O)OCc2cc(=O)n3nc(C4CC4)sc3n2)cc1	-0.54	nt
CSc1n[nH]c(N)c1-c1ccccc1	nt	-1.2
Cc1ccc2nc(N3CCN(c4cccc(Cl)c4)CC3)c3nnnn3c2c1	-6.8	nt
O=C(Nc1cnc2sccn2c1=O)c1ccc(Cl)cc1	-1.8	-1.2
COc1ccc(NS(=O)(=O)c2ccc3oc(=O)c4ncn(C)c4c3c2)cc1	-0.12	-0.08
Cn1cc([N+](=O)[O-])c(C(=O)Nc2nc(-c3ccc(Cl)cc3)cs2)n1	0.13	-0.24
COC(=O)C1=C(C)NC(=S)NC1c1ccccc1OCc1ccccc1 (configuration not stated)	nt	0.89
CC(C)(C)NC(=O)CCc1nc(-c2ccc(C(C)(C)C)cc2)no1	3.4	-1.1
Cc1cc(C)cc(NS(=O)(=O)c2cc(-c3noc(C)n3)cs2)c1	0.84	nt
Cc1occc1-c1nnc(SCC(=O)Nc2ccc(Br)cc2)o1	2.9	1.9
Cc1cc(C)n(CC(=O)NC2CCCCC2)c(=O)c1C#N	0.37	nt
CC(C)(C)c1ccc(C(=O)Nc2ccc(Oc3cccnc3)nc2)cc1	nt	-0.21
O=S1(=O)c2ccccc2N(Cc2ccccc2)c2ccccc21	-1.7	nt
Cc1sc(NC(=O)c2ccc(Br)cc2)nc1-c1ccc(Cl)c(Cl)c1	nt	0.03
Cc1nc(C(N)=S)cs1	nt	-0.77
Cc1nc(C)c(-c2ccn(C(=O)Nc3ccc(Cl)cc3)n2)s1	nt	-1.4
O=C(CN1C(=O)CSc2ccc(S(=O)(=O)N3CCCC3)cc21)NC1CCCC1	1.7	nt
O=C1CCc2cc(S(=O)(=O)N3CCN(c4ccc(F)cc4)CC3)cc3c2N1CCC3	2.2	nt
Cc1c(C(=O)NCc2ccco2)oc2ccc(S(=O)(=O)N3CC(C)CC(C)C3)cc12 (configuration not stated)	nt	0.28
COCCNC(=O)C1CCN(c2nn3c(=O)c4c(nc3s2)CCCC4)CC1	1.9	nt
Cc1cccc(NC2=NC3(CCCC3)N=C(N)N2)c1	nt	0.76
Cc1cc(C)c(C#N)c(SCc2nc3ncccn3c2Br)n1	0.34	nt
CC1CSc2ccc(S(=O)(=O)N3CCN(C(=O)c4ccco4)CC3)cc2NC1=O (configuration not stated)	1.2	nt
CSc1ccc(CCNc2ncnc3onc(-c4ccc(Cl)cc4)c23)cc1	0.17	nt
NC(=O)c1cnn2c1NCC=C2c1cccc(C(F)(F)F)c1	nt	-0.62
CCOC(CC(=O)NN)OCC	nt	0.38
CSc1cccc(NC(=O)Nc2nc(-c3ccccc3)cs2)c1	0	-2.1
CSc1cccc(NC2=NS(=O)(=O)C(c3ccc(F)cc3)=C2C)c1	-0.26	nt

Three of these compounds, reformatted.
SMILES: COCCNC(=O)C1CCN(c2nn3c(=O)c4c(nc3s2)CCCC4)CC1
  TAR Tat displ: 1.9	CDC25B CDK2 inh: nt

SMILES: Cc1cccc(NC2=NC3(CCCC3)N=C(N)N2)c1
  TAR Tat displ: nt	CDC25B CDK2 inh: 0.76

SMILES: Cc1cc(C)c(C#N)c(SCc2nc3ncccn3c2Br)n1
  TAR Tat displ: 0.34	CDC25B CDK2 inh: nt

Additional results follow.
SMILES	TAR Tat displ	CDC25B CDK2 inh
COc1ccc(-n2ccnc(NCc3cccs3)c2=O)cc1	-0.86	nt
CCOc1ccc(C2C3=C(CC(C)(C)CC3=O)Nc3cc(OC)cc(OC)c32)cc1 (configuration not stated)	0.52	0.85
O=C(N1CCN(CCO)CC1)N1c2ccccc2CCc2ccccc21	0.33	-0.69
CC(C)c1cc(C(=O)NCc2ccco2)no1	0.36	0.46
CC1CCCCN1CCN1C(=O)c2cc3ccccc3n2CC1(C)C(=O)NC1CCCCC1 (configuration not stated)	18*	nt
COc1cccc(CNc2nc3c(S(=O)(=O)c4cccc(Cl)c4)nnn3c3ccsc23)c1	0.37	nt
O=C(Nc1cnc2ccccn2c1=O)c1ccc(F)cc1	1.1	0.77
CCOC(=O)C1CCCN(c2c(NCc3ccco3)c(=O)c2=O)C1 (configuration not stated)	0.87	0.11
CCC(CC)C(=O)Nc1ccc2nc(SCc3cc(=O)n4nc(C)sc4n3)sc2c1	-0.21	nt
Cc1occc1-c1nnc(SC(C)C(=O)NCc2cccs2)o1 (configuration not stated)	2.3	0.17
COC(=O)c1cc(S(=O)(=O)N2CCCC2)c[nH]1	2.7	nt
CCOc1cc(C2CC(=O)NC3=C2C(=O)CC(C)(C)C3)cc(Br)c1O (configuration not stated)	-0.54	-1.3
COc1ccc(-c2csc3ncnc(NCc4cccc(OC)c4)c23)cc1	1.8	nt
CC1=C(C(=O)OC2CCCC2)C(c2ccc3c(c2)OCO3)C2=C(CC(c3ccccc3)CC2=O)N1 (configuration not stated)	1.4	-1.6
C#C[C@]1(O)CC[C@H]2[C@@H]3CCC4=Cc5oncc5CC4(C)[C@H]3CCC21C (some centres not stated)	nt	-1.3
O=C(Nc1ccccc1SCc1cc(=O)n2nc(C3CC3)sc2n1)c1cccs1	-0.68	nt
CCOC(=O)C(CC)Sc1ncnc2nc[nH]c12 (configuration not stated)	nt	-0.01
C=CCNc1ncnc2c1cnn2-c1ccc(F)cc1	1.5	nt
Cc1ccc(Nc2ncnc3onc(-c4ccc(F)cc4)c23)c(C)c1	-1.7	nt
CCCN1CCN(c2ncc3c(n2)CCN(CCc2ccccc2)C3)CC1	0.59	nt
COc1ccc(O)c(C2=NN3C(C2)c2ccccc2OC3c2cc(OC)ccc2OC)c1 (configuration not stated)	-0.9	0.12
Cc1nn(-c2ccc(N3CCCC3)nn2)c(C)c1CCC(=O)Nc1ccc(F)cc1	0.66	nt
CC1=CC(C)(C)N(C(=O)Nc2ccc(Cl)cc2)c2ccccc21	1.2	-2.5
O=C(Nc1ccccc1)Nc1nnc(-c2ccccc2I)s1	nt	-4.2
CC(=O)Nc1cc(C(=O)c2cccs2)nn(-c2ccc(Cl)cc2)c1=O	nt	-1.3
CCOc1ccc(S(=O)(=O)Nc2ccc(-c3ccc(N4CCCC4)nn3)cc2)cc1	2.6	nt
O=c1[nH]c(CN2CCOCC2)nc2c1oc1ccccc12	nt	-1.4
CN1C(=O)CCc2cc(NS(=O)(=O)c3ccccc3Br)ccc21	0.48	nt
O=C(Cn1nc(-c2ccco2)ccc1=O)Nc1ccc2c(c1)OCCO2	1.5	nt
O=C(O)CCSCc1ccccc1F	1.6	nt
Cn1ncc2c(Nc3ccc(Cl)cc3)nc(NCCc3ccccc3)nc21	0.68	nt
O=S(=O)(c1cccc2cccnc12)N1CCC(Cc2ccccc2)CC1	1.1	1.2
CCS(=O)(=O)c1nc(S(=O)(=O)c2ccc(Cl)cc2)c(N2CCCCC2)s1	1.4	-1.4
Cc1ccc(N2C(=O)c3oc4ccccc4c(=O)c3C2c2cccnc2)nc1 (configuration not stated)	1.3	-0.38
O=C(NC1COc2ccccc2C1)N1CCCC1 (configuration not stated)	1.4	nt
O=C(c1cccs1)n1nc(-c2ccco2)nc1NCc1ccc(Br)cc1	1.8	-4.9
O=C1OCc2ccc(NC(=O)c3c(F)cccc3Cl)cc21	nt	-2.6
CC1=CC(C)(C)Nc2ccc(OC(=O)COc3ccc4ccccc4c3)cc21	nt	0.27
CCC(NC(=O)Nc1cc(C)cc(C)c1)c1c(-n2cccc2)sc2c1CCN(C)C2 (configuration not stated)	-6.4	nt
CCCOc1ccc(C2c3c(oc4cc(C)c(C)cc4c3=O)C(=O)N2c2nccs2)cc1 (configuration not stated)	0.53	-0.82
CN(C)c1ccc(-c2nc3cnccn3c2Nc2ccccc2)cc1	2.4	-3.3
CCCN(CCC)S(=O)(=O)c1cc2c3c(c1)CC(=O)N3CCC2	1.2	nt
CSC1=NC(C)N2C(SC)=NC(C)N12 (configuration not stated)	nt	-1.6
O=C(CSc1ccccn1)N1CCc2ccccc2C1	4.3	0.48
CC(=O)N1CCc2cc(S(=O)(=O)C(C)CC(=O)NCc3ccc(C)o3)ccc21 (configuration not stated)	0.74	nt
Cc1cn2c(=O)c(S(=O)(=O)N3CCN(C4CCCCC4)CC3)c(C)nc2s1	-0.02	nt
CCN1CCN(C(c2cccs2)C(C)NC(=O)C(=O)N2CCOCC2)CC1 (configuration not stated)	2.3	-0.73
COc1cccc(C2OC(c3cc(C4CC4)nc4ccccc34)=NN2C(C)=O)c1 (configuration not stated)	2.9	nt
CNC(=O)c1c(NC(=O)C(C)(C)C)sc2c1CCC2	0.19	nt
CCOC(=O)c1c(NC(C)=O)sc2c1CCC(C)C2 (configuration not stated)	0.53	0.82
CCC12c3ccccc3C(c3ccccc31)C1C(=O)N(c3ccc(Cl)c(C(=O)O)c3)C(=O)C12 (configuration not stated)	nt	-1.4
Cc1nc2c(-c3ccccc3)c(C)nn2c(C)c1CC(=O)O	0.87	-0.61
CCOC(=O)c1c(NC(=O)CSc2cn[nH]c(=O)n2)sc2c1CCCC2	0.24	1.3
O=C(Nc1ccc(F)cc1F)c1sc2ccccc2c1Cl	0.16	-0.58
COc1ccc(CN2C(=O)c3cccnc3C2=O)cc1S(=O)(=O)N(C)C1CCCCC1	1.3	nt
Cc1cccc(-n2c(=O)[nH][nH]c2=S)c1	nt	-0.67
Cc1ccc2sc(N(CCN(C)C)C(=O)c3cccs3)nc2c1C	1.3	nt
CCOC(=O)C1CCN(c2csc3ccc(C)cc3c2=O)CC1	0.72	nt
Cc1ccc(-c2nc3c4c(C)c(C)n(Cc5ccco5)c4ncn3n2)cc1	-0.37	-0.53
Cc1nn(-c2nc3ccccc3o2)c2c1C(c1ccccc1)CC(=O)N2 (configuration not stated)	0.05	nt
CC(=O)Nc1ccccc1SCc1cc(=O)n2nc(C(C)C)sc2n1	0.34	nt
CN(C)C(=O)c1ccc2c(c1)ncn2CCNC(=O)NC(C)(C)C	-2.1	nt
Cc1cccc(CN2C(=O)N(c3cc(C)ccc3C)C3CS(=O)(=O)CC32)c1 (configuration not stated)	-0.37	nt

Source: PubChem (Center for Chemical Genomics, University of Michigan)
